# Screening data (PubChem BioAssay)
# TRPML1 inh: inhibitors of human TRPML1 channel; activity change, negative = inhibition, % (no concentration beside the values); TRPML1-inducible cells, Ca2+ dye fluorescence, FDSS; stronger effect = lower value; inhibition of EC80 agonist-evoked calcium signal; AID 624415; 390,000 tested, 0.02% active; in the data active means activity change below about -50%; inconclusive means about -30% to -50%; inactive means above about -30%;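 note: stimulus is agonist 54-4 at its EC80 concentration; % is set by controls: 0 for no effect and ±100 for the full control effect; compound concentration not given in the record; the text of the record puts the active cut at -80%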
# Target sequence (Q9GZU1 whole entry, looked up): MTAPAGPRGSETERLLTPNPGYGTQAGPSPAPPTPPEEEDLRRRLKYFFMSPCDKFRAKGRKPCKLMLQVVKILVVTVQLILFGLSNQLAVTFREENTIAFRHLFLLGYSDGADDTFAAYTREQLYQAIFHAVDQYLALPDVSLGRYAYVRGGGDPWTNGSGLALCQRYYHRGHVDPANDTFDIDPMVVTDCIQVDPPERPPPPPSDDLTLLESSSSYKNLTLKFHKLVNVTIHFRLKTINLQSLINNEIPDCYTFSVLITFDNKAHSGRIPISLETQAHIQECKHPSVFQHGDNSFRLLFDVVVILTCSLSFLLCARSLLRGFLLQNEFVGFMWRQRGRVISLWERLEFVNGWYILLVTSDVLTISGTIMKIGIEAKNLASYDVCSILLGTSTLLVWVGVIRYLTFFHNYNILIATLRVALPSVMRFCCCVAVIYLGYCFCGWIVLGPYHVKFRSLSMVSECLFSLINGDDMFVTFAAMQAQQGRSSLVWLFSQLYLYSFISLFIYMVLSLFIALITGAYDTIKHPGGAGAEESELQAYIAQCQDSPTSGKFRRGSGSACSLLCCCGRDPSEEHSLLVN
#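 TRPML1-DL cells, Tet-induced overnight (~16 h, 37 °C) at 1,500 cells/well, were loaded with Ca8 no-wash dye plus quencher for 45-90 min at room temperature. Compounds were pinned during FDSS kinetic reading; agonist 54-4 at EC80 (4 uM final) then added.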
# gsp ag: gsp mutant agonism. gsp mutant cells, cAMP HTRF, 30 min; control for the full effect not named in the record. Potency, µM (doses to about 76.9 µM), inactives show at the highest dose activation (cAMP increase), actives largely listed as activators. 340,000 tested, 0.13% active. AID 624287; active = well fitted activation curve with a large enough effect; inconclusive = small, poorly fitted or top-dose-only effect, or another doubt; inactive = no such curve, though single readings can be large or run the other way; cell line not stated here;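 note: phosphodiesterase inhibitor Ro 20-1724 added with compounds to block cAMP breakdown; potency is the fitted concentration of half-maximal effect; nearly all actives have a fitted effect of over 60% in size; about a fifth of the inactives were tested at one dose only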
#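 Cells stably selected in G418 were plated at 2000/well, grown 16-24 hr, then given compounds in DMSO with the PDE inhibitor […] (300 uM solution added) for 30 min at 37C; cAMP was read by HTRF.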
# TRPML1 agonist: activates the human TRPML1 channel. activation, % (no concentration beside the values). TRPML1-expressing cells, Ca2+ dye fluorescence, FDSS; host cell line not named in the record; reference of the full effect not given here. Q9GZU1. 410,000 tested, 0.12% active; in the data active = activation above about 50%; inconclusive = about 30% to 50%; inactive = below about 30%; note: 0% is about no effect; the text of the record puts the active cut at 80%
#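 Tetracycline-induced TRPML1-DL cells are seeded and incubated overnight before loading with a no-wash Ca2+ dye and quencher. Agonist activity is taken from the 110 s fluorescence read following compound pin-transfer on an FDSS, before EC80 54-4 challenge.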
# gsp antagonist: antagonists of gsp mutant (McCune-Albright syndrome). gsp-mutant cells, cAMP HTRF, 30 min; control for the full effect not named in the record. Potency, µM (series often up to 76.9 µM), without a hit: at the top dose activity change, negative = inhibition, usual class: inhibitors. 340,000 tested, 0.4% active. AID 624288; active = falling curve of any shape with a large fitted effect; inconclusive = falling curve, mostly with a smaller effect; inactive = flat or rising curve; cell line not stated here;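 note: intracellular cAMP measured with PDE inhibitor Ro 20-1724 present during compound exposure; potency is the fitted concentration of half-maximal effect; % is set by controls: 0 for no effect and ±100 for the full control effect; nearly all actives have a fitted effect of over 65% in size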
#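 Measurement of cellular cAMP by homogeneous time-resolved fluorescence following a 30 min compound exposure at 37C. The PDE inhibitor […] was present throughout; the assay buffer was DPBS with 0.05% BSA and 0.005% Tween 20.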
# Menin MLL FP FL: displaces fluorescein MLL peptide from human menin | Fluorescence polarization, fluorescein-MLL peptide displacement from menin | 290,000 tested, under 10 active | AID 1766 | FP activity change, % at 61.4 µM; inconclusive = falling polarisation curve, or a change in total fluorescence; inactive = total fluorescence flat and polarisation flat or rising; no compound was filed as active; the % refers to the polarisation; negative = inhibition;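 note: % of control where 0% means no effect; inhibitors lower the polarisation; unlabelled MLL peptide was the positive control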
# ClpP mod: qHTS Assay for Activators of ClpP. Potency, µM (titrated, usually from 57.5 µM), for the others: top-dose activity change, negative = active. AID 651965, 2013. 340,000 tested, 1.9% active. purified B. subtilis ClpP, FRET peptide cleavage, 20 min; active = well fitted falling curve with a large enough effect; inconclusive = small, poorly fitted or top-dose-only effect; inactive = no such curve, though single readings can be large or run the other way; note: potency is the fitted concentration of half-maximal effect; the source files actives as falling curves though it sought activators and does not explain the sign; nearly all actives have a fitted effect of over 65% in size; many hits overshoot -100%
# Target sequence (P80244 whole entry, looked up): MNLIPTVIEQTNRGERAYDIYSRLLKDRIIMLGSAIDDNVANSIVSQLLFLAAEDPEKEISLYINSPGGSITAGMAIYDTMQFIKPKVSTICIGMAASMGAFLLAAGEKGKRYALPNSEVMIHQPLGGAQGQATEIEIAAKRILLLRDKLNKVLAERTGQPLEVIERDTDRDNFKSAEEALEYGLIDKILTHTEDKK
#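 FRET quenching reversal measured ClpP activation: 10 microg/mL B. subtilis ClpP at pH 8 with the FRET-FV decapeptide, read at 430 nm after 320 nm excitation. The 20-min minus 0-min signal was scaled between DMSO/no-enzyme wells and ADEP (5.8 microM final).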
# * = called active by the depositor; u = inconclusive; x = no result given; & = joins results of further samples; [ ] = dose if it differs, or a comment.
SMILES,TRPML1 inh,gsp ag,TRPML1 agonist,gsp antagonist,Menin MLL FP FL,ClpP mod
Cc1c(C(=O)OC2CCC(C)CC2)[nH]c2c1C(=O)CC(c1ccc(F)cc1)C2 (centres undefined),-1.1,x,0.2,x,x,-0.4%
COc1ccc(N2CCN(C(=O)CCn3cnc4onc(-c5ccc(F)cc5)c4c3=O)CC2)cc1,8.5,x,1.2,x,x,-1.9%
COc1ccc(-c2cc(C(=O)NN)[nH]n2)cc1,-4.1,14.3%[15.4 µM],-0.2,8.6%,0.0,-1.3%
C/C(=C\C(=O)c1ccc(Br)cc1)NCc1ccc2c(c1)OCO2,44.0,-9.0%,0.8,-20.8%,-2.3,-3.4%
CCOc1cc(C2c3c(n[nH]c3C)C(=O)N2c2ccc(Br)cc2)ccc1O (centres undefined),10.0,-32.1%[inhibitor],1.0,-14.4%,1.4,-0.5%
CCOC(=O)c1ccc(Nc2cc(-c3ccccc3)nc(C)n2)cc1,17.0,x,1.3,x,x,-23.1%
CCOc1ccc(-n2c(C)c(C(=O)O)c3cc(OC)ccc32)cc1,4.0,13.0%,2.0,-18.3%,2.5,x
COc1ccc2oc(C(=O)c3ccccc3)c(N)c2c1,44.4,7.4%,3.7,7.2%,4.1,-5.5%
COc1ccc(NC(=O)c2ccc(C)cc2)c[n+]1[O-],-6.0,26.3%[15.4 µM],-0.8,-5.6%,0.4,-4.4%
NS(=O)(=O)c1ccc(NC(=O)CN2C(=O)CCC2=O)cc1,-7.8,-3.9%,-0.6,13.6%,0.0,-0.2%
O=c1cc2c(nn1Cc1c(Cl)cccc1Cl)-c1ccccc1CC2,15.2,-11.2%,0.3,u,3.5,-15.1%
CCN(CC)c1ccc(NC(=O)CN2C(=O)c3cccnc3Sc3ccccc32)c(C)c1,3.4,x,2.1,x,x,-17.3%
COc1ccc(C(C#N)c2nc3ccccc3nc2Cl)cc1 (centres undefined),9.4,u,2.2,-16.0%,1.8,-0.2%
CN1CCC(=NNC(=O)C(=O)Nc2cccc(Br)c2)CC1,16.4,-13.1%[15.4 µM],0.2,13.1%,4.1,x
CCCN(CCC)CCCNC(=O)c1cc2c(=O)n(CC)c3ccccc3c2s1,13.8,u,1.0,3.6%,1.3,x

SMILES,TRPML1 inh,gsp ag,TRPML1 agonist,gsp antagonist,Menin MLL FP FL,ClpP mod
CCOC(=O)C1=NNC2C(=O)N(Cc3ccccc3)C(=O)C12 (centres undefined),20.5,-27.5%[15.4 µM],9.9,7.8%,-2.0,0.3%
Cc1cc(F)ccc1NC(=O)C1CCN(C(=O)Nc2ccccc2)CC1,8.9,-3.8%[15.4 µM],0.4,-7.5%,x,-4.9%
O=C(CSc1nnc(Cc2cc(=O)[nH]c(=O)[nH]2)n1-c1ccc(Cl)cc1)NCC1CCCO1 (centres undefined),-7.3,4.9%,-0.1,6.1%,u,-2.3%
O=C(Nc1ccc(NC(=O)C2CC2)nc1)c1cnccn1,-2.9,-5.3%,-0.2,29.6%,0.7,0.8%
O=S(=O)(Nc1ccncc1Cl)c1ccccc1,10.4,-1.2%,0.2,4.0%,1.0,1.1%
CCOC(=O)N1CCC(NC(=O)c2cccs2)CC1,-3.9,-8.4%[15.4 µM],-0.2,8.9%,-1.0,-6.0%
COc1ccc(CCNc2nc(-c3ccc(OC)c(OC)c3)cc(C(F)(F)F)n2)cc1OC,7.0,x,0.3,x,x,u
COc1ccccc1NC(=O)COc1cc(Br)c(CNCCCN2CCOCC2)cc1OC,1.1,u,0.7,-10.9%,0.6,-0.2%
Cn1nnnc1SCC(=O)NCC(=O)c1ccccc1,13.8,-4.0%,0.1,11.5%,1.7,-1.5%
Cc1[nH]c(C)c(S(=O)(=O)NCc2ccco2)c1C(=O)N1CCCCC1,3.2,-70.9%[inhibitor],1.5,9.4%,0.0,-0.7%
CC(=O)Nc1ccc(Nc2ncnc(N)c2[N+](=O)[O-])cc1,-8.1,-12.9%[15.4 µM],0.6,-14.5%,1.5,0.2%
COC(=O)c1ccc2nc(NC(=O)C3CC3)sc2c1,-7.3,6.2%[15.4 µM],0.7,-6.0%,-2.9,x
CCOC(=O)C1CCCCN1Cc1cccc(OCc2ccccc2)c1 (centres undefined),11.8,-3.4%,0.6,5.4%,-0.7,0.0%
Cc1ccc(C)c(N2CCN(S(=O)(=O)c3ccc4[nH]c(=O)c(=O)[nH]c4c3)CC2)c1,1.0,14.5%,-0.3,-12.8%,-0.4,u
C[C@H](CO)N1C[C@H](C)[C@H](CN(C)Cc2ccncc2)Oc2ncc(Br)cc2C1=O,1.7,22.8%,-0.7,x,x,0.6%

SMILES,TRPML1 inh,gsp ag,TRPML1 agonist,gsp antagonist,Menin MLL FP FL,ClpP mod
COc1ccccc1OCC(O)Cn1c(=N)n(Cc2ccccc2)c2ccccc21 (centres undefined),25.3,u,-0.7,9.6%,0.3,-6.0%
O=C(O)c1ccc(NC(=S)Nc2ccccc2)cc1,1.2,-2.5%,0.1,5.8%,8.3,-4.4%
CCN(CC)c1ccc(/C=N/NC(=O)c2ccc3nc[nH]c3c2)c(O)c1,24.9,4.2%[15.4 µM],1.5,-1.2%,-0.6,x
CCc1ccc2[nH]c(C(=O)N(C)c3ccc(F)cc3F)cc2c1,-5.1,-4.1%[15.4 µM],3.6,11.6%,-0.9,0.5%
Cc1ccc(C(C(=O)NC2CCCC2)N(C(=O)CNC(=O)c2cccs2)c2cccnc2)o1 (centres undefined),-12.9,u,-0.4,-3.7%,-0.7,0.0%
CCOC(=O)C1C(c2ccccc2)C(C(=O)OCC)S(=O)(=O)C(CCN(CC)CC)S1(=O)=O (centres undefined),18.6,u,2.4,9.3%,2.5,x
C=Cc1ccc(CN2C(=O)N(c3cccc(Cl)c3)S(=O)(=O)c3ccccc32)cc1,-3.2,x,0.3,x,x,-0.8%
Cc1oc(-c2ccc(C(=O)N(C)Cc3ccccc3)cc2)nc1CN1CCc2ccccc21,-7.9,x,4.1,x,x,-5.3%
CC(C)OC(=O)c1c(NC(=O)CCn2nnc3ccccc32)sc2c1CCCC2,29.3,-47.5%,0.1,-16.4%,1.2,0.8%
Cc1cccc(OCCCC(=O)NNC(=O)c2ccncc2)c1,16.4,-12.1%[15.4 µM],1.0,11.0%,x,x
COc1ccc(C(=O)Nc2ccc(-c3ccc(C)o3)cc2)cc1S(=O)(=O)N1CCOCC1,-1.0,0.8%,-0.8,-22.4%,-3.0,-9.1%
COC(=O)c1nn(-c2nc(-c3ccc(OC)c(OC)c3)cc(C(F)(F)F)n2)cc1[N+](=O)[O-],6.8,29.8%,-0.1,9.8%,-0.1,-0.2%
COc1cccc(-c2cc(C(=O)Nc3ccc(N(C)C(C)=O)cc3)c3cc(Br)ccc3n2)c1,-5.8,23.7%,0.8,-11.8%,x,-10.4%
COc1cc(-c2cc(=O)c3c(O)c(OC)c(OC)c(OC)c3o2)cc(OC)c1OC,-17.1,u,-0.1,-6.0%,2.0&0.9,-1.2%
CCn1cc(SCC(=O)Nc2cc(C)on2)c2ccccc21,2.5,-33.5%[inhibitor],0.6,-8.3%,3.0,0.1%

SMILES,TRPML1 inh,gsp ag,TRPML1 agonist,gsp antagonist,Menin MLL FP FL,ClpP mod
COc1ccccc1S(=O)(=O)Cc1ccc(C(=O)NCc2ccc(Cl)cc2)o1,-0.5,x,-0.2,x,x,-1.4%
O=C(c1cnn2c(C(F)(F)F)cc(-c3cccs3)nc12)N1CCCC1,2.2,5.1%,2.8,-0.7%,0.0,-7.6%
CCS(=O)(=O)C(=C1Nc2ccccc2N1)S(=O)(=O)CC,5.3,u,-0.3,0.4%,0.7,-1.4%
Cc1oc2cc3oc(=O)c(CC(=O)NCC(=O)N[C@@H](C(=O)O)c4ccccc4)c(C)c3cc2c1C,x,x,x,2.7%,-2.6,u
Cn1c(=O)c2c(nc(SCC(=O)c3ccc(F)cc3)n2C)n(C)c1=O,-0.3,23.4%[15.4 µM],2.6,-14.5%,-1.8,-1.6%
Cc1cc(NC(=S)NC(=O)c2ccco2)c2ccccc2n1,-4.4,2.9%[15.4 µM],-0.7,-20.0%,-1.4,x
CC(=O)Nc1ccc(S(=O)(=O)NC(C)(C#N)C2CC2)cc1 (centres undefined),12.2,2.7%[15.4 µM],0.2,8.0%,0.6,x
CCCCCCCCCC(=O)N[C@@H]1c2cc(OC)c(OC)cc2C[C@H]1OCc1ccccc1,-4.8,x,-0.7,3.9%,x,-1.2%
O=C(COC(=O)c1ccc(Br)cc1)NC1CCCC1,-0.8,20.8%,0.7,7.7%,3.9,x
CC(C)c1ccc(N=Cc2c(O)c3ccccc3oc2=O)cc1,x,u,x,-19.2%,-0.5,-12.9%
CCCCN(C(=O)c1cccc(S(=O)(=O)N2CCN(C)CC2)c1)c1c(N)n(CCCC)c(=O)[nH]c1=O,-6.3,-8.4%,1.2,9.9%,x,-7.4%
COc1cc(NC(=O)Cn2cc(S(=O)(=O)N3CCC(C)CC3)c3ccccc3c2=O)cc(OC)c1OC,-12.6,x,-0.1,x,x,-2.4%
COc1ccc(S(=O)(=O)N2CCOCC2)cc1NC(=O)CCc1c[nH]c2ccccc12,-3.1,-21.4%,0.2,-5.4%,1.6,x
Cc1ccc(OCC(=O)Nc2nnn(C)n2)c(C)c1,4.2,-0.2%,0.3,15.3%,0.7,-0.1%
Cc1cc(S(=O)(=O)NCCCN2CCOCC2)c(C)cc1Cl,12.8,3.5%[15.4 µM],0.0,12.0%,x,1.8%

SMILES,TRPML1 inh,gsp ag,TRPML1 agonist,gsp antagonist,Menin MLL FP FL,ClpP mod
CCN(C(=O)c1cc(S(=O)(=O)N2CCCCC2)c[nH]1)c1ccc(OC)cc1,-4.6&11.3,18.5%,-1.5&1.0,-12.3%,-2.7,1.1%&-4.7%
CCOc1ccc(Cl)cc1CSc1ncn[nH]1,2.3,3.1%,1.3,5.9%,3.5,x
O=C(COc1ccccc1F)OCc1cc(=O)n2nc(-c3cccs3)sc2n1,u,x,-1.1,x,x,u
C/C(=C\c1ccccc1)C(=O)Nc1ccc(S(=O)(=O)Nc2ncccn2)cc1,14.7,8.4%,0.1,-21.4%,2.5,-1.5%
Cc1cc(C)c2c(n1)nn1c(C3CC3)cc(C(F)(F)F)nc21,12.5,-13.6%,-0.2,5.6%,x,-3.1%
Cc1cnc(C=O)c2cccc([N+](=O)[O-])c12,-11.9,-3.1%,3.9,x,x,1.1%
CCCCn1nc2cc(C(=O)N(CC)c3ccc(OC)cc3)ccc2c1OCC,11.0,-8.2%,1.5,1.3%,-3.9,4.2%
Cc1ccccc1Nc1cc(C(=O)NCCc2ccc(Cl)cc2)c2ccccc2n1,1.3,x,2.0,x,x,u
COc1ccc(-c2nnc(SCC(=O)NC(C)c3ccccc3)o2)cc1 (centres undefined),-11.4,15.9%,0.3,-6.1%,-0.7,-0.6%

# The order is random; overall some 2.1% were active at least once.
